Screens from PubChem.
UCH37 DUB inh: inhibitors of human UCH37 deubiquitinase, primary screen, biochemical, Ub-AMC cleavage, fluorescence. inhibition, % (concentration not given with the values). 330,000 tested, 0.33% active. purified proteasome/UCH37;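 active means mean of two replicates above 20%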;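 further: 0% = compound-free wells with enzyme and 100% = wells lacking proteasome; stock transfer was 100 nL into about 20 µL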
Target sequence (Q9Y5K5 whole entry, looked up): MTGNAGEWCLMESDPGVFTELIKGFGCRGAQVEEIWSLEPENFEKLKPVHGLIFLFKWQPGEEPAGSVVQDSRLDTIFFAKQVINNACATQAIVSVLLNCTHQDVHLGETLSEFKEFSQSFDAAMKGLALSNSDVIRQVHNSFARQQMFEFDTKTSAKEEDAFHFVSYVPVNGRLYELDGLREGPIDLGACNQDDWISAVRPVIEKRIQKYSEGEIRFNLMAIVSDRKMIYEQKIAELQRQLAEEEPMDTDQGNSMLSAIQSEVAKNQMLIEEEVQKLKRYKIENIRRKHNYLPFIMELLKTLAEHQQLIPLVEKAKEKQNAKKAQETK
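Material: human UCH37 enzyme supplied as purified proteasome complex. Measure: % inhibition of Ub-AMC cleavage fluorescence. Medium: pH 7.4 Tris-HCl (50 mM) with ovalbumin, ATP-MgCl2, DTT. Times: 30 min preincubation with enzyme, 25 min cleavage at room temperature. Detection: AMC fluorescence intensity at 355/460 nm.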
T cruzi repl: inhibitors of intracellular T. cruzi growth, primary screen, luminescence, NIH3T3 host cells | 300,000 tested, 1.4% active | T. cruzi beta-gal in NIH3T3, 90 h | inhibition, % (no concentration beside the values);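 active means mean inhibition across valid replicates above about 55%, limit read from the data; inconclusive means mean below that limit but half or more replicates reach it; inactive means mean below it, under half of replicates reach it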;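 further: signal also drops with host cell toxicity which is not excluded here; 0% = plate median of DMSO wells and 100% = zero luminescence signal; higher percent means less beta-gal luminescence so fewer parasites; stock transfer was 50 nL into about 50 µL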
Ecoli growth: E. coli growth inhibition, primary screen, OD600. 330,000 tested, 0.21% active. Escherichia coli growth, 23 h; hits give low values. OD600 absorbance (concentration not given with the values);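 active means OD600 absorbance below the run mean of sample wells minus 3.6 SD, in any replicate, cut at about 0.56 in these data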;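 further: stock transfer was 300 nL into about 60 µL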
rRNA inh HTS: reduced GFP signal of wild-type E. coli, primary screen, bacterial rRNA inhibitor project, GFP/RFP fluorescence, OD600, single point; E. coli WT GFP vs humanized-ribosome RFP mutants, 24 h; hits give low values; DMSO median 0, no signal -100; GFP signal change (wild-type ribosome), % (no concentration beside the values); 350,000 tested, 1.6% active; AID 720706, 2013;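 active means significant combined selectivity score with lowered wild-type GFP, culture density cut under 30%, mutant RFP and density less affected; inactive means any of these conditions unmet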; further: one replicate is shown; some compounds called inactive have numbers as strong as hits
A1 inh: caspase 3/7 activation in MEF A1-2A-BIM cells, primary screen, A1 inhibitor project, cell-based, luminescence, HTS; Caspase-Glo 3/7 luminescence, 3 h; percent of clofoctol response, vehicle zero; caspase activation, % (concentration not given with the values); 330,000 tested, 0.066% active; AID 2462, 2010;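 active means over half of replicate activation scores above 10%, or exactly half above 10 with the replicate mean above 10; inconclusive means replicate mean below 10 yet half the replicates above 10; inactive means over half of replicates below 10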;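 further: wells of about 30 µL received 50 nL stock; many hits fall short of the cut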
Beta cell apopt: inhibitors of cytokine-induced beta cell apoptosis, primary screen, luminescence; protection from apoptosis, % (concentration not given with the values); INS-1E cytokine-induced death, ATP luminescence, 48 h; percent of positive-control rescue, neutral wells zero; 300,000 tested, 0.8% active;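 active means all replicates at 75% or more, or half of them and the mean; inconclusive means half reach 75% but not the mean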;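 further: 0% = cytokine-treated negative control wells and 100% = positive control rescue; higher means more ATP so stronger rescue from cytokine killing; wells of about 40 µL received 100 nL stock; the first replicate is given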
MLL AF4-AF9 inh: inhibitors of AF4 peptide binding to AF9, primary screen, biochemical, AlphaScreen, biotin-AF4 peptide, FLAG-AF9, single point; Protein AF-9 (Homo sapiens), P42568; inhibition, % at 10 µM; 350,000 tested, 0.47% active; AID 651704, 2012;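 active means every replicate reaching a set inhibition limit, whatever the replicate mean, cut at about 25% in these data; inconclusive means mean inhibition reaches that limit but some replicates miss it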;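 further: 0% = plate neutral control median and 100% = total signal loss; the record names both 10 and 1 µM as test concentration; the first replicate is given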
Target sequence (P42568 whole entry, looked up): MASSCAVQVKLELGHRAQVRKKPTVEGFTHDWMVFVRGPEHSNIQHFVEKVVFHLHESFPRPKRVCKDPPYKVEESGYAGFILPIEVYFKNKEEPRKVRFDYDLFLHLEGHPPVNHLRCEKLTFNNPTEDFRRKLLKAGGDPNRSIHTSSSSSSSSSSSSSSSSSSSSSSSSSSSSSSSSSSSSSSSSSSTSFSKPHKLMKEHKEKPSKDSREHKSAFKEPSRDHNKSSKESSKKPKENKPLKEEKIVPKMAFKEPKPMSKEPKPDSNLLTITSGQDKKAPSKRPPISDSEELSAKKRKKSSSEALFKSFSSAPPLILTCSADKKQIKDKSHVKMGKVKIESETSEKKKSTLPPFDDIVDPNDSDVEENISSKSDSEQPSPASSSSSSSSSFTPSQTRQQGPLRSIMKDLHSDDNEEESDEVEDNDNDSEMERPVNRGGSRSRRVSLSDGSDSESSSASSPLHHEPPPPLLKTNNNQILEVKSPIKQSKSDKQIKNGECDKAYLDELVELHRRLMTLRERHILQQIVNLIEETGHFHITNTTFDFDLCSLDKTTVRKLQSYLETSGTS
FGF22 binding: binders of human FGF22 protein, primary screen, FGF22 synaptogenesis inhibitor project, biophysical, thermal shift, single point; calls only at 9.99 µM; Fibroblast growth factor 22 (Homo sapiens), Q9HCT0; 340,000 tested, 1.5% active; AID 651658, 2012; recombinant FGF22 thermal shift, SYPRO orange fluorescence; percent of sucrose octasulfate shift, DMSO zero;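 active means melting point raised past a set limit in the mean and every replicate; inconclusive means no clear call; three in four hits are not shown here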
Target sequence (Q9HCT0 whole entry, looked up): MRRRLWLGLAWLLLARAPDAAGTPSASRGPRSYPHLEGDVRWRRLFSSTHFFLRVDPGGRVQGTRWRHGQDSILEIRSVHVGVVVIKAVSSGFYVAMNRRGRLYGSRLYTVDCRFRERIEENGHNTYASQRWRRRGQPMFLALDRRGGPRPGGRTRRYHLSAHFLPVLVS
rRNA inh HTS OD600: further read-out of rRNA inh HTS, marked with its call; OD600 change, %; measured here: OD600 growth;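 optical density of the mix in the first replicate; 0 = DMSO median and -100 = no signal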
rRNA inh HTS RFP: second read-out of rRNA inh HTS, no call of its own (marks repeat the call); RFP signal change, %; measured here: RFP humanized mutant strains;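 first replicate; 0 = DMSO median and -100 = no signal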
The depositor's hits bear a star; i = inactive; ? = inconclusive; · = not tested or not shown.

SMILES	UCH37 DUB inh	T cruzi repl	Ecoli growth	rRNA inh HTS	rRNA inh HTS OD600	rRNA inh HTS RFP	A1 inh	Beta cell apopt	MLL AF4-AF9 inh	FGF22 binding
O=C(NCc1cccs1)c1cnn2cccnc12	-13.1	-2.6	0.647	-1.6	-1.7	4.3	0.9	-7.2	-1.9	i
Cc1cccc(/C=N/NC(=O)Cn2nnnc2N)n1	·	1.6	·	11.2	6.8	-3.1	0.3	0.3	-1.5	i
COC(=O)CCCCCN1C(=O)NC(C2CC2)C(C(=O)OCc2ccccc2)=C1C (centres undefined)	-3.1	10.2	0.752	-28.4	-40.0	4.5	1.5	-4.2	?	i
Cc1nc(-c2ccc(F)cc2)c(CC(=O)N(C)CC(=O)Nc2ccc(F)cc2)s1	5.1	-8.4	0.678	-4.0	-6.3	-2.3	0.3	·	-4.1	i
Cc1cc2nc(-c3ccc(SCC(=O)N4CCOCC4)nc3)[nH]c2cc1C	-146.6	-10.4	0.706	·	·	·	-4.0	10.1	·	·
COC(=O)CSc1nnc(CNC(=O)c2cc(OC)cc(OC)c2)n1-c1ccc(F)cc1	5.1	-1.7	0.705	4.3	-2.8	0.3	-0.3	-9.1	-4.1	i
COc1ccc(OC)c(C(C)NC(=S)NC2CCCCC2)c1 (centres undefined)	-0.9	-3.0	0.671	-1.6	-17.5	-4.6	-0.6	1.6	0.6	i
Cc1ccc(C2CC(C(F)(F)F)n3nc(C(=O)NCc4c(C)nn(C)c4C)c(Cl)c3N2)cc1 (centres undefined)	1.7	-68.6	0.675	·	·	·	-0.7	27.6	·	·
COc1ccc(NC(=O)c2ccc(-c3ccccc3Cl)o2)cc1	-1.2	-4.3	0.695	-6.3	-3.6	-6.3	-4.1	-1.6	-15.0	i
CC1(C)CC(=O)C2=C(C1)OC(/N=C/N1CCCC1)=C(C#N)C2c1ccccc1 (centres undefined)	·	3.2	·	8.3	6.7	-2.0	0.9	-2.3	-5.5	i
COc1ccc(-c2noc(CN(C)Cc3ccccc3)n2)c(OC)c1OC	2.8	19.2	0.697	2.4	-5.6	-2.3	0.3	·	3.1	i
O=C(CSc1ccc(F)cc1)NCC1(N2CCOCC2)CCCCC1	3.2	8.8	0.693	0.6	-0.6	0.6	0.5	-7.2	-5.1	i
CCOC(=O)[C@H]1[C@H]2COc3ccc(C)cc3[C@@H]2N2C(=O)c3cc(F)c(F)cc3NC(=O)[C@@]12C	1.0	·	·	-9.6	-14.8	-11.1	0.1	2.6	3.2	i
CCCN1CCC(NC(=O)Nc2ccc(F)cc2F)CC1	10.4	12.9	0.724	·	·	·	-0.4	0.2	·	·
Cc1cc2c(sc3c(C)ccc(C)c32)c(C)n1	-8.8	7.5	0.652	-34.8*	2.6*	7.5*	0.5	-0.8	4.5	i
O=S(=O)(CCC1CCCCN1)c1ccccc1 (centres undefined)	1.8	-9.6	0.659	14.7	26.4	0.7	-0.4	1.2	0.0	i
CC(C)(C)n1ncc2c(=O)n(CC(=O)N3CCCCCC3)cnc21	0.0	6.0	0.756	·	·	·	0.6	-3.9	·	·
Cc1ccccc1-n1c(=O)n(Cc2ccc(C(=O)O)cc2)c(=O)c2[nH]cnc21	0.3	-13.0	0.699	15.1	16.4	0.2	0.1	-5.1	-0.5	i
CSCCC(NS(=O)(=O)c1ccc(F)cc1)C(=O)NCc1ccc(S(N)(=O)=O)cc1 (centres undefined)	1.3	-10.8	0.685	9.0	2.5	-0.1	0.2	-3.9	-6.1	i
O=C(Nc1ccc(C(=O)O)cc1)Nc1ccc(F)cc1F	5.8	-12.5	0.616	4.8	2.2	0.9	-7.1	-12.8	1.2	·
O=C1COc2ccc(C(=O)COC(=O)CNS(=O)(=O)c3cccc(F)c3)cc2N1	3.4	·	0.64	0.3	6.8	-2.8	-0.1	0.9	-8.0	i
N#CNC(=Nc1ccccc1)SCc1ccc(C(=O)O)cc1	1.8	-8.6	0.642	3.6	-2.2	-0.8	0.3	-17.5	-1.1	i
Oc1c(CN2CCOCC2)cc(-c2ccccc2)cc1CN1CCOCC1	4.2	-2.0	0.691	·	·	·	1.2	·	·	·
Cc1ccc(S(=O)(=O)N2CCN(S(=O)(=O)c3ccc(C)cc3)C3OCCOC32)cc1 (centres undefined)	1.5	-3.2	0.659	·	·	·	0.1	-5.5	·	·
O=C(O)CC(CC(=O)Nc1ccc(-n2ccc(C(F)(F)F)n2)cc1)c1ccccc1 (centres undefined)	1.8	-8.0	0.656	-8.0	-10.7	-0.7	-0.2	-10.5	-1.6	i
CC(=O)CSc1nc2c(c(=O)[nH]c(=O)n2C)n1CCCc1ccccc1	4.5	10.3	0.724	16.3	8.1	-0.1	-0.7	-3.8	-0.5	i
Cc1cc(/C=C2\SC(=Nc3ccccc3)NC2=O)c(C)n1-c1ccc(S(N)(=O)=O)cc1	-6.5	8.3	0.729	·	·	·	-0.1	17.8	·	·
Oc1oc(-c2ccccc2)nc1C=Nc1cccc2ccccc12	-13.2	-6.5	0.689	-2.3	-5.9	-1.5	-0.8	-2.3	12.0	i
CSc1ccc(S(=O)(=O)Nc2ccccc2C(=O)N2CCOCC2)cc1	-0.1	-6.5	0.628	2.9	4.8	0.5	0.9	·	-1.2	i
COCCN(C(=O)C1CC(=O)N(Cc2ccc(C)cc2)C1)c1c(N)n(CC(C)C)c(=O)[nH]c1=O (centres undefined)	-2.3	·	0.658	2.7	6.2	-1.4	-0.9	16.5	-1.7	i
CCCCn1c2ccc(F)cc2c2nnc(SCCN3CCOCC3)nc21	9.8	12.0	0.674	-13.3	-19.9	-1.4	-0.7	10.5	3.7	i
CN(CC(=O)Nc1cc(Cl)ccc1C#N)C1CCS(=O)(=O)C1 (centres undefined)	1.6	·	0.657	7.5	8.2	-1.8	0.6	3.1	-0.7	i
COc1ccc(NC(=O)C2CCC(=O)N2S(=O)(=O)c2ccc(C)cc2)cc1Cl (centres undefined)	0.6	-13.0	0.659	-1.6	-1.9	-0.2	0.0	8.5	-1.0	i
COC(=O)c1cc(F)c(-n2cncn2)c(F)c1	2.4	-6.1	0.71	13.1	24.4	-9.4	-0.7	-1.7	1.0	i
O=C(Cc1ccc(F)cc1)N1CCN=C1SCc1cccc([N+](=O)[O-])c1	2.4	6.0	0.727	3.9	-6.3	0.7	-1.3	-6.9	-0.7	·
CCOC(=O)C1=C(O)C(=O)N(CCCn2ccnc2)C1c1ccc(C)cc1 (centres undefined)	3.0	-13.6	0.678	20.1	7.2	1.7	0.7	-8.8	1.5	i
CC(=O)N1CCSc2ccc(S(=O)(=O)Nc3ccccc3C)cc21	2.3	-0.5	0.641	-8.7	-10.4	1.6	0.3	2.3	0.0	i
CCOc1ccccc1CN1CCNC(=O)C1CC(=O)NCCN1CCOC1=O (centres undefined)	4.4	-10.0	0.691	20.9	21.0	-0.1	1.0	-1.9	3.3	i
Cc1ccc(S(=O)(=O)N2CCOC2CNC(=O)C(=O)NCc2ccc(Cl)cc2)cc1 (centres undefined)	0.2	6.1	0.689	-4.1	-0.4	-5.1	0.1	3.7	-1.3	i
O=S(=O)(c1ccc(Cl)cc1)N1CCCc2ccccc21	-0.4	5.6	0.626	-21.7	-18.7	-8.0	0.5	·	-1.7	i
CC(C)(C)C(=O)CN1C(=O)NC(C)(Cc2ccc3c(c2)OCO3)C1=O (centres undefined)	2.0	-9.6	0.659	-1.3	0.5	0.9	-0.1	-1.2	-4.8	i
CCCC(C)c1nc(C(N)=O)c2[nH]c(=O)n(-c3ccc(OC)cc3OC)c2n1 (centres undefined)	6.4	13.7	0.72	·	·	·	-0.4	3.5	·	·
O=C(CCN1CCN(CCO)CC1)Nc1cccc(Br)c1	1.7	-6.9	0.697	·	·	·	0.2	1.1	-0.8	i
C[C@]12C(=O)N(c3cccc(F)c3)C(=O)N1[C@@H]1c3ccccc3OC[C@@H]1[C@H]2c1ccccc1	3.1	9.2	·	-8.0	-6.9	-9.0	-0.1	3.5	2.5	i
Cc1ccccc1CN1CCN(CCCc2ccccc2)C(CCO)C1 (centres undefined)	1.7	16.3	0.698	5.9	-1.1	-2.1	-0.3	-0.4	-1.5	i
COC(=O)c1cccc(NC(=O)CN2CCc3ccccc3C2)c1	3.7	-0.2	0.636	3.0	2.5	-3.5	0.1	-3.5	-1.7	i
Cc1ccc(N2CC(C(=O)N3CCC4(CC3)CC(=O)c3ccccc3O4)CC2=O)cc1C (centres undefined)	-42.1	0.1	0.625	-11.4	-26.0	0.0	-1.3	0.3	3.4	i
CC(C)OC(=O)c1c(N)n(CCCN2CCOCC2)c2nc3ccccc3nc12	i	7.6	0.638	·	·	·	0.5	·	·	·
Cc1ccc(NC(=O)CN(C)S(=O)(=O)c2cccc3cccnc23)cc1	3.3	-4.1	0.651	-0.3	-7.5	-5.3	0.3	-3.9	-3.3	i
Cc1nc(-c2ccc(NC(=O)c3ccccc3C)cc2)cs1	4.8	-21.5	0.644	-27.2*	-21.1*	-3.2*	-0.1	7.3	-1.5	i

Next section:
SMILES	UCH37 DUB inh	T cruzi repl	Ecoli growth	rRNA inh HTS	rRNA inh HTS OD600	rRNA inh HTS RFP	A1 inh	Beta cell apopt	MLL AF4-AF9 inh	FGF22 binding
CCOC(=O)C1C(=O)OC2(CCOC(C)(C)C2)C1C(=O)OCC (centres undefined)	1.0	·	0.686	·	·	·	-1.3	-1.6	-0.2	·
COc1ccc(-n2nc3c(c2NC(=O)C24CC5CC(CC(C5)C2)C4)CS(=O)C3)cc1 (centres undefined)	4.3	-0.9	0.752	2.3	5.4	0.8	0.0	1.6	-15.6	i
COc1ccc(CNCC(O)(c2ccc(Cl)cc2)c2ccc(Cl)cc2)cc1	0.5	48.9	0.646	·	·	·	0.4	34.3	·	·
COc1ccccc1CN1C(=NC(=O)CCC2CCCC2)SC2CS(=O)(=O)CC21 (centres undefined)	·	2.0	·	5.3	20.5	-3.1	0.6	1.2	-2.5	i
CNC(=O)CSc1nnc(C(C)C)n1C	-0.1	3.3	0.695	1.1	-7.7	-1.8	0.4	3.0	-0.2	i
CCNC(=O)N1C(CC(=O)OCC)C(=O)NC2CCCCC21 (centres undefined)	3.2	-2.2	0.767	·	·	·	-0.1	1.5	·	·
CC(=O)Nc1ccc(S(=O)(=O)N(C)CC(=O)NNC(=O)c2cccs2)cc1	-2.0	·	0.682	10.0	19.4	3.2	0.2	-4.6	0.1	i
N#Cc1c(NC(=O)CSc2nc(N)cc(=O)[nH]2)sc2c1CCCCCC2	0.2	-15.2	0.723	-19.0	-19.4	1.7	-0.5	43.3	-55.0	·

An excerpt; rates above refer to the full screens.
